High-throughput results as filed in PubChem BioAssay.
BJeLR viability = MLPCN primary cell-based screen for lethality selective to Ras in HRASV12 cells; hit rate 0.17% among 300,000; inhibition, % (no concentration beside the values); BJeLR (HRASV12) viability, CellTiter-Glo ATP luminescence, 48 h; reference of the scale not given here;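 active = replicate mean above 50%; inconclusive = above 50% but judged a plate artefact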;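 also: 50 nL library stock added to about 25 µL; numbers are from one replicate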
Mtb hypoxia inh = PubChem AID 1159583 | M. tuberculosis hypoxia-regulated fluorescent reporter, fluorescence | fluorescence inhibition, % (no concentration beside the values) | hit rate 0.1% among 300,000;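 active = 35 to 45% if threefold the growth effect, above 45% if 1.5-fold the growth effect; inactive = the rest, general growth blockers included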;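 also: wells of about 50 µL received 100 nL stock; 0% = vehicle wells and 100% = reference inhibitor wells; whole bacteria with a GFP reporter of the hypoxia response; strong numbers were not always called active; many hits fall short of the cut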
PrP 5UTR inh = inhibition of PrP 5' UTR reporter expression; cell-based PrP 5' UTR mRNA reporter, plate reader; inhibition, % (no concentration beside the values); hit rate 0.35% among 340,000;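 active = every replicate at 50% or more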;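 also: 0 = median of the neutral control wells; tested in H4 reporter cells; numbers are from one replicate; inactives centre near -14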
RN4220 kill = growth inhibition of S. aureus RN4220, primary screen, OD600 | 16 h | inhibition, % (test concentration not listed) | hit rate 0.33% among 330,000 | AID 1259311, 2017;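 active = z-score of -3 or lower and OD600 up to 0.18 on both plates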;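 also: plate controls were untreated cells for no effect and reference antibiotic for full effect; stock transfer was 100 nL into about 80 µL; one replicate is shown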
ugtP null kill = growth inhibition of ugtP-null S. aureus, primary screen, RN4220 ugtP deletion, OD600; 16 h; some inactives read as strong as hits; growth inhibition, % (test concentration not listed); hit rate 0.54% among 330,000; AID 1259309, 2017;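 active = z-score under -3 and OD600 up to 0.15 on both plates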;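 also: plate controls were untreated wells for no effect and antibiotic for full effect; wells of about 80 µL received 100 nL stock; the first replicate is given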
Bead autofluor = compound fluorescence in toxin protease inhibitor counterscreen; compound autofluorescence counterscreen, microsphere flow cytometry; hits give high values; fluorescence intensity (concentration not given with the values); hit rate 3.1% among 360,000; AID 624483;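 active = at least 3 SD above the mean of all compounds, about 16000 in these data; inconclusive = too few beads counted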;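 also: 100 nL of 1 mM stock went into each well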
Mtb hypoxia inh growth = recorded beside Mtb hypoxia inh, whose call it bears; growth inhibition, %; measured here: M. tuberculosis growth (absorbance);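 0% = vehicle and 100% = reference antibiotic; read after six days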
Numbers without * were called inactive; ? = inconclusive; nt = no result given.

SMILES	BJeLR viability	Mtb hypoxia inh	Mtb hypoxia inh growth	PrP 5UTR inh	RN4220 kill	ugtP null kill	Bead autofluor
COc1ccc(Nc2nc(NCc3ccco3)nc(NN=Cc3ccccc3F)n2)cc1	nt	2	-2	nt	34	39	nt
COc1ccc(NC(=O)C2=C(C)Nc3ncnn3C2c2ccccc2C(F)(F)F)c(OC)c1 (stereo not drawn)	nt	nt	nt	-18	3.3	3	2265
COc1cc(C(=O)OC2C[C@H]3CC[C@@H](C2)N3)ccc1O (stereo partly drawn)	4	-12	8	-23	3.6	8	4201
CCn1cnc2cc(NCc3nc4ccccc4n3Cc3ccccc3)ccc21	6	nt	nt	-34	-2.2	-7	4192
N#Cc1ccc(COC(=O)C2CCC(=O)N2)cc1 (stereo not drawn)	25	nt	nt	-23	-5.4	-2	3544
Cc1ccc(S(=O)(=O)N(C)c2ccc(OCC(=O)NCC3(N(C)C)CCCCC3)cc2)cc1	8	1	4	-10	3.0	4	5562
COc1cccc(-c2nnc(SCC(=O)NCc3ccc4c(c3)OCO4)n2Cc2ccco2)c1	-3	nt	nt	7	2.4	-8	2878
COc1ccc(S(=O)(=O)N2CCCC(C(=O)NC3CCCC3)C2)cc1OC (stereo not drawn)	-2	6	12	-2	3.4	7	3628
Cc1cccc(C)c1-n1cccc1/C=C1/C(=N)N2C(=NC1=O)SN=C2S(C)(=O)=O	-7	7	-4	-13	28	25	2415
COC(=O)C1(C)NC(c2cccs2)C2C(=O)N(c3ccc(F)cc3)C(=O)C21 (stereo not drawn)	-11	3	-4	-9	3.4	4	7052
CCOC(=O)c1cc(C(=O)NC(C)c2ccccc2)c(=O)[nH]c1C (stereo not drawn)	-4	1	18	-14	3.9	-3	3602
O=c1c2ccccc2nc(-c2ccoc2)n1-c1ccccc1	4	5	5	2	3.4	12	20668*
Cc1ccc(CN2CCNC(=O)C2CC(=O)NCC(F)(F)F)o1 (stereo not drawn)	-5	4	8	-28	2.9	6	2624
Cc1ccc(Cl)cc1OCC(=O)NCCOC(=O)Nc1sc(=S)n(C)c1C	-2	3	0	-22	-1.8	0	2757
Cc1nn2c(N3CCOCC3)cc(C(C)(C)C)nc2c1-c1ccc(Cl)cc1	0	1	1	1	-5.0	12	3789
COc1ccc(C(=O)N2CCc3cc4c(cc3C2C)OCCCO4)cc1 (stereo not drawn)	2	nt	nt	10	3.8	10	5876
Cc1c(C(c2ccc(Br)cc2)c2c(C)n(C)n(-c3ccccc3)c2=O)c(=O)n(-c2ccccc2)n1C	-2	5	21	-7	-1.7	10	3343
COC(=O)NN=C1CCC(c2ccccc2)CC1 (stereo not drawn)	nt	0	-4	-2	5.8	4	5222
O=C1CCCN1CCCNS(=O)(=O)c1ccc(F)c(F)c1	1	9	6	-18	0.1	3	?
Cc1cccc(OCc2nnc(SCC(=O)N3CCN(C(=O)c4ccco4)CC3)n2C)c1C	10	4	9	0	1.0	4	11320

At a glance, some entries already given:
SMILES	BJeLR viability	Mtb hypoxia inh	Mtb hypoxia inh growth	PrP 5UTR inh	RN4220 kill	ugtP null kill	Bead autofluor
Cc1ccc(S(=O)(=O)N(C)c2ccc(OCC(=O)NCC3(N(C)C)CCCCC3)cc2)cc1	8	1	4	-10	3.0	4	5562
COc1cccc(-c2nnc(SCC(=O)NCc3ccc4c(c3)OCO4)n2Cc2ccco2)c1	-3	nt	nt	7	2.4	-8	2878
COc1ccc(S(=O)(=O)N2CCCC(C(=O)NC3CCCC3)C2)cc1OC (stereo not drawn)	-2	6	12	-2	3.4	7	3628
Cc1cccc(C)c1-n1cccc1/C=C1/C(=N)N2C(=NC1=O)SN=C2S(C)(=O)=O	-7	7	-4	-13	28	25	2415
COC(=O)C1(C)NC(c2cccs2)C2C(=O)N(c3ccc(F)cc3)C(=O)C21 (stereo not drawn)	-11	3	-4	-9	3.4	4	7052
CCOC(=O)c1cc(C(=O)NC(C)c2ccccc2)c(=O)[nH]c1C (stereo not drawn)	-4	1	18	-14	3.9	-3	3602
O=c1c2ccccc2nc(-c2ccoc2)n1-c1ccccc1	4	5	5	2	3.4	12	20668*
Cc1ccc(CN2CCNC(=O)C2CC(=O)NCC(F)(F)F)o1 (stereo not drawn)	-5	4	8	-28	2.9	6	2624
Cc1ccc(Cl)cc1OCC(=O)NCCOC(=O)Nc1sc(=S)n(C)c1C	-2	3	0	-22	-1.8	0	2757
Cc1nn2c(N3CCOCC3)cc(C(C)(C)C)nc2c1-c1ccc(Cl)cc1	0	1	1	1	-5.0	12	3789
COc1ccc(C(=O)N2CCc3cc4c(cc3C2C)OCCCO4)cc1 (stereo not drawn)	2	nt	nt	10	3.8	10	5876
Cc1c(C(c2ccc(Br)cc2)c2c(C)n(C)n(-c3ccccc3)c2=O)c(=O)n(-c2ccccc2)n1C	-2	5	21	-7	-1.7	10	3343

The results go on:
SMILES	BJeLR viability	Mtb hypoxia inh	Mtb hypoxia inh growth	PrP 5UTR inh	RN4220 kill	ugtP null kill	Bead autofluor
Cc1ccccc1-n1nnnc1SCC(=O)NCC1(N2CCOCC2)CCCCC1	nt	2	6	-18	7.2	7	8522
Cc1noc(C)c1COC(=O)c1ccc(F)c(S(=O)(=O)N2CCOCC2)c1	nt	12	-6	-10	7.0	0	8351
CC(C)(C)NC(=O)C(c1ccco1)N(Cc1ccc2c(c1)OCO2)C(=O)Cn1nnc2ccccc21 (stereo not drawn)	-34	5	4	-24	9.1	-4	5175
Nc1nc(-c2cccnc2)nc2sc3c(c12)CCCC3	-5	17	18	-100	8.0	-12	2187
O=C(CN1C(=O)NC2(CCOc3ccccc32)C1=O)c1ccc(F)cc1 (stereo not drawn)	3	9	2	-7	2.7	1	5472
O=C(CN1CCN(Cc2ccccc2)CC1)N1CCCc2ccccc21	3	13	1	-7	4.1	15	2889
CCOC(=O)N1CCN(C(=O)CNC(=O)c2nn(-c3ccc(OC)c(OC)c3)c(=O)c3ccccc23)CC1	-7	3	1	-22	4.9	6	5116
COc1ccc(Cl)cc1NC(=O)CC(C)=NNC(=O)CCc1ccccc1	nt	11	7	nt	6.3	6	nt
COc1ccc(/C=C/c2ccccc2)cc1[C@H]1[C@H]2C=CC[C@@H](C)[C@@H]2C(=O)N1Cc1ccccc1	1	nt	nt	-23	nt	nt	3308
Cc1cc(C)n2nc(SCc3cc(=O)oc4cc(O)ccc34)nc2n1	0	nt	nt	nt	-0.3	-1	nt
O=C(O)CSc1nc2ccc(Cl)cc2[nH]1	nt	nt	nt	-18	-2.9	-4	2097
CC(Oc1ccc(Br)cc1)C(=O)Nn1c(=S)[nH]c2ncccc2c1=O (stereo not drawn)	2	3	-19	nt	5.6	2	nt
Cc1nnc(SCCN2CCOCC2)n1-c1cccc(Cl)c1	0	8	14	-11	3.0	2	8565
COc1ccc(/C=N/NC(=O)CNC(=O)COc2ccccc2)cc1	-9	nt	nt	-18	nt	nt	2434
Cn1c(-c2ccccc2)c(/C=N/NC(=O)c2cccnc2)c2ccccc21	8	nt	nt	-61	nt	nt	4988
O=C(Nc1ccc2c(c1)OCO2)c1ccc(Cl)s1	5	-5	3	-122	5.0	-8	16810*
Cc1ccc(Cn2c(=N)n(CC(O)COc3ccccc3)c3ccccc32)cc1 (stereo not drawn)	2	-1	9	-21	2.4	-39	11389
Cc1ccc(NC(=O)CSCC(=O)Nc2nnc(C)s2)cc1	-1	4	11	-10	1.7	4	4837
O=C(COC(=O)c1ccco1)NCc1cccs1	0	5	5	-6	1.7	-5	3004
COc1cccc(/C=N/NC(=O)CSc2ccccc2C)c1O	-2	nt	nt	-2	nt	nt	2539
CCn1nc(NS(=O)(=O)c2ccccc2[N+](=O)[O-])c2cc3ccc(C)cc3nc21	4	6	-5	-20	6.8	-9	3629
CC1CCCN(CCCNC(=O)CCn2nc(-c3ccccc3)ccc2=O)C1 (stereo not drawn)	-19	9	-3	-48	1.4	5	10230
COc1ccccc1C(=O)Nc1ccc(N2CCN(S(C)(=O)=O)CC2)cc1	2	7	10	-42	-1.1	-6	8657
NCC(=O)Nc1ccc(Br)cc1	-3	10	2	-16	3.0	0	3834
CC(=O)C1=NN(c2ccccc2)C2(SC(=Cc3ccccc3)C(=O)N2c2ccccc2)S1 (stereo not drawn)	nt	11	10	nt	1.3	2	nt
O=C(/C=C/c1ccc(F)cc1)NCCNC(=O)/C=C/c1ccc(F)cc1	-1	6	-7	-42	3.8	9	3719
CC(C)OCCCNC(=O)C(Cc1ccccc1)NS(=O)(=O)c1ccc2c(c1)CCC(=O)N2 (stereo not drawn)	6	0	2	-7	0.4	6	5478
O=C(Nc1ccc2oc(=O)ccc2c1)c1cc([N+](=O)[O-])ccc1N1CCOCC1	4	-3	0	-19	3.1	-1	nt
CCn1cc(C(=O)O)c(=O)c2cc(F)c(N3CCN(C(=O)Nc4ccccc4)CC3)cc21	4	-4	11	-2	86	96*	10793
Cc1ccc(S(=O)(=O)N2CCN(C(=O)COC(=O)/C=C/c3ccc(F)cc3)CC2)c(C)c1	-2	12	-1	-6	4.0	3	6023
Cc1ccc(NC(=O)c2cc(S(=O)(=O)N3CCCCC3)c[nH]2)cc1F	13	7	-2	1	-0.1	8	4410
CCC1c2ccc(C)n2CCN1C(=O)Nc1ccccc1OC (stereo not drawn)	-4	-2	1	-18	13	3	5021
CCc1nc(N2CCN(C(=O)CCl)CC2)c2c3c(sc2n1)CC(C)CC3 (stereo not drawn)	38	nt	nt	-33	nt	nt	4163
Cc1cc(C)cc(NC(=O)[C@H](Cc2c[nH]c3ccccc23)NC(=O)[C@@H]2Cc3ccccc3CN2)c1	3	nt	nt	-15	-1.2	1	4420
CC1(C)NC(=O)N(CC(O)COc2ccc(N3C(=O)c4ccccc4C3=O)cc2)C1=O (stereo not drawn)	2	2	3	-1	5.1	9	?
Cc1ccc(SCCNC(=O)c2ccc(C)c(S(=O)(=O)Nc3ccccc3C)c2)cc1	-3	4	7	7	22	-24	13061
CCOC(=O)c1cccc(OC(=O)CCNC(=O)c2ccc(Cl)cc2)c1	nt	20	9	-13	4.5	6	4039
O=C(COC(=O)c1ccc[n+]([O-])c1)Nc1ccc([N+](=O)[O-])cc1Cl	nt	9	8	3	3.5	0	6652
COC(=O)C1=C(C)NC(C)=C(C(=O)OC)C1C(=O)OCC(=O)Nc1ccc(C(C)=O)cc1	-27	1	2	-35	-1.2	-6	3372
Cc1nc(N2CCCCC2)c2c(C)c(C(=O)Nc3cccc(C(F)(F)F)c3)sc2n1	-9	8	-3	-23	6.8	-28	2210
CC1=NN(c2cccc([N+](=O)[O-])c2)C(=O)C1	-3	0	-2	2	-0.2	1	4088
CC(C)N(C(=O)NC(=O)NCC1CCCO1)S(C)(=O)=O (stereo not drawn)	14	-3	-21	-30	-0.2	4	6313
COc1cccc(-n2c(CN3CCN(c4ccc(C)cc4)C(C)C3)nc3ccc([N+](=O)[O-])cc3c2=O)c1 (stereo not drawn)	-7	nt	nt	-8	nt	nt	9766
COc1ccc(OCCCC(=O)Nc2nnc(C3CCCO3)s2)cc1 (stereo not drawn)	5	9	7	-28	7.5	-6	10312
CC1=C(C(=O)OC2CCCC(C)C2)C(c2ccccc2)NC(=O)N1 (stereo not drawn)	-4	5	4	-14	8.7	-3	3763
COc1cccc(CN2CCNC(=O)C2CC(=O)NCCOc2cccnc2)c1OC (stereo not drawn)	-6	9	-4	-14	5.4	7	2547
O=C(O)CNS(=O)(=O)c1cccc(Cl)c1	0	8	17	-17	2.6	7	4760
O=C(NCCc1c[nH]c2ccccc12)Nc1cccc2ccccc12	15	nt	nt	-2	-2.6	-1	4801
CNS(=O)(=O)c1cccc(C(=O)OCC(=O)NCc2ccccc2)c1	-2	15	2	-24	1.0	3	7949
COc1ccc(N(CC(=O)NCCc2ccc(OC)c(OC)c2)S(=O)(=O)c2ccc(OC)c(OC)c2)cc1	-6	-6	-10	-7	1.3	2	3516
COc1cccc(C(=O)Nc2ccc(N3CCN(C(=O)c4ccco4)CC3)cc2)c1	12	1	6	-42	0.4	-1	4579
